NPR1 antag: Natriuretic polypeptide receptor (hNpr1) antagonism - Primary qHTS; Atrial natriuretic peptide receptor 1 (Homo sapiens), P16066; Potency, µM (top dose mostly 46.3 µM), inactives show top-dose activity change, negative = inhibition, actives largely listed as inhibitors; HEK293 hNpr1 GloSensor cGMP, ANP-stimulated luminescence; 76,000 compounds, 1.6% hits; active = well fitted inhibition curve with a large enough effect; inconclusive = small, poorly fitted or top-dose-only effect; inactive = no such curve, though single readings can be large or run the other way;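 further: nearly all actives have a fitted effect of over 60% in size; nearly all hits also lower the signal before the agonist is added; a reference antagonist and vehicle were the controls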
Target sequence (P16066 whole entry, looked up): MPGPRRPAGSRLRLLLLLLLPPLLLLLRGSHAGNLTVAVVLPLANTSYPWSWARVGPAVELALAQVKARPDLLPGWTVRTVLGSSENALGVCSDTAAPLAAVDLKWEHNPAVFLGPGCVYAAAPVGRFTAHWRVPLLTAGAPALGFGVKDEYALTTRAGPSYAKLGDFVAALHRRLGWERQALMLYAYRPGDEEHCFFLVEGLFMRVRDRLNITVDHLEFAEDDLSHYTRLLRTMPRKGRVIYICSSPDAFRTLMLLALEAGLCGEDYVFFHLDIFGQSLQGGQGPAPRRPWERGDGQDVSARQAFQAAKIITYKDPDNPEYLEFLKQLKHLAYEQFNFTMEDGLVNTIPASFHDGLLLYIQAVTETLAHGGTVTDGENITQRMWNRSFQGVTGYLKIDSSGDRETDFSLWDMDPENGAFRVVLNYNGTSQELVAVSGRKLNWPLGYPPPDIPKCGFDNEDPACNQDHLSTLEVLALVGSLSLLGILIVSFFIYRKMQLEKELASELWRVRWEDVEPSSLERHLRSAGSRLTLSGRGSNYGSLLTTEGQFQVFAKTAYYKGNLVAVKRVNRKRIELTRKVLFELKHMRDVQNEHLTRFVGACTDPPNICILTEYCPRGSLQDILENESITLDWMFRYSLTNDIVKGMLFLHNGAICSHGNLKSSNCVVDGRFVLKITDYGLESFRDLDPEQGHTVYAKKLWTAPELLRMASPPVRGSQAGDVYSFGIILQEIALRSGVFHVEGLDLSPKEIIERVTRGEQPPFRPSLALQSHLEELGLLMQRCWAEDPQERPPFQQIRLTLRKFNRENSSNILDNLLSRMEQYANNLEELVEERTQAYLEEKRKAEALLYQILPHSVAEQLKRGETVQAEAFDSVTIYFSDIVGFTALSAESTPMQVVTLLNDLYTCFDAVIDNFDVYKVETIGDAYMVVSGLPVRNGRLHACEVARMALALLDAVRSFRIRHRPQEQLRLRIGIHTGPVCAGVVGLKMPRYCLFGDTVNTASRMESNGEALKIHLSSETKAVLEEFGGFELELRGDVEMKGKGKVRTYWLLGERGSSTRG
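HEK293 cells stably expressing human Npr1 and cGMP GloSensor pGS-40F, loaded 2 h with 2% GloSensor reagent, given compound 30 min at room temperature. Luminescence read before and 20 min after 0.1 nM hNppA.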
Active calls of the source: *; ? = inconclusive; & = joins results of further samples; [ ] = dose if it differs, or a comment. On the % scale 0 is the no-effect control and ±100 the full control effect; potency means the concentration at half of the fitted maximal effect.

| mol | NPR1 antag |
| --- | --- |
| CC#CCn1cc2c3c(cccc31)[C@H](CC(C)C)N[C@H](C(=O)NC1CCCC1)C2 | -9.2%[70.6 µM] |
| CN(C)Cc1nnc(C2CC(NC(=O)c3coc4ccccc34)C2)n1C (stereo unspecified) | 3.0%&0.0% |
| CCC(O)C1CCN(C(=O)c2cnn3cc(CN(CC)CC)cnc23)CC1 (stereo unspecified) | 9.4% |
| Cc1ccsc1C(=O)NCC1Cn2cccc2C(=O)N1CC(C)C (stereo unspecified) | -0.1% |
| COc1ccc(-c2cnc3n[nH]c(-c4ccc(F)cc4C)c3n2)cn1 | -2.6%[70.6 µM] |
| O=C(NC1CCCC1)N1CCCC(c2nn[nH]n2)C1 (stereo unspecified) | 9.2% |
| Cc1nc(NCCNS(C)(=O)=O)cc(C2CC(O)C2)n1 (stereo unspecified) | 1.2% |
| Cc1nnn2c(C(=O)N3CCOCC3)cccc12 | 0.0%[70.6 µM] |
| CCOCc1nc(C2CCCN(C(=O)Cc3ccc(OC)cc3)C2)no1 (stereo unspecified) | 1.2% |
| Cc1nc(-c2c3n(c(=O)n(CC(=O)Nc4ccc(C)c(C)c4)c2=O)CCCC3)no1 | 2.7% |
| Cn1c([C@H]2CCN(C3CCOCC3)C2)nc2ccccc21 | 2.5%[70.6 µM] |
| COc1ccc(CCC(=O)N2CCCC(n3cc(-c4nc(-c5ccccc5)no4)nn3)C2)cc1 (stereo unspecified) | 12.6µM* |
| NC(=O)[C@@H]1CCCN1CC[C@H]1CN(C(=O)NC2CCCCC2)CC[C@H]1CC(=O)O | 1.3%[70.6 µM] |
| O=C(Nc1cccc(Cl)c1)C1CCN(c2cc(C(F)(F)F)ncn2)CC1 | ? |
| Cc1ccc(C(=O)N2CCC(Cc3nc(-c4cnccn4)no3)CC2)cc1C | -6.8% |
| COc1ccc(NC(=O)c2cc(-c3ccc[nH]3)n[nH]2)cc1 | -4.5% |
| O=C(NCc1ccccn1)C1CCN(Cc2cc3n(n2)CCCNC3)CC1 | 0.2% |
| Cn1ccnc1C(=O)N1CCC(N2C(=O)C3(CCCCC3)C2c2ccncc2)CC1 (stereo unspecified) | 2.4% |
| CCN1CC(c2ccccc2)CC2(CCN(C(=O)COC)CC2)C1 (stereo unspecified) | -2.1% |
| CCOc1ccc(C2CC(=O)Nc3c2c(C)nn3CC(=O)O)c(OCC)c1C (stereo unspecified) | -0.4% |
| Cc1cc(C)c(C(=O)N2CCOC(Cc3ccc(F)cc3)C2)o1 (stereo unspecified) | -4.7% |
| CN(C)C(=O)N1CCN(C(=O)c2noc3c2CCCC3)[C@H]2CS(=O)(=O)C[C@H]21 | -0.4% |
| O=C(Cc1ccc(F)cc1)N1CCN(C(=O)c2nnn3c2COC(c2ccc(F)cc2)C3)CC1 (stereo unspecified) | ? |
| COc1ccc(CN2C(=O)CO[C@H]3CN(C(C)C)C[C@H]32)cc1 | 2.3%[70.6 µM] |
| CCN1CCC2(CCC1=O)CN(Cc1nc(CCOC)no1)CCN2C (stereo unspecified) | 8.7% |

Of the compounds above, these contain a COOH group:
| mol | NPR1 antag |
| --- | --- |
| NC(=O)[C@@H]1CCCN1CC[C@H]1CN(C(=O)NC2CCCCC2)CC[C@H]1CC(=O)O | 1.3%[70.6 µM] |
| CCOc1ccc(C2CC(=O)Nc3c2c(C)nn3CC(=O)O)c(OCC)c1C (stereo unspecified) | -0.4% |

Further structures
| mol | NPR1 antag |
| --- | --- |
| CC1Oc2ccc(NC(=O)c3c(F)cccc3F)cc2CN(Cc2cc(F)cc(F)c2)C1=O (stereo unspecified) | -17.8% |
| Cc1ccc(CNC(=O)c2ccc3c(c2)N(C)C2CCCCCN2C3=O)cc1C (stereo unspecified) | -3.7% |
| COCc1nc(CCN)no1 | 0.0% |
| CCNC(=O)N1CCC([C@H]2[C@@H](OC)C(=O)N2C(C)C)CC1 | -3.3% |
| Cc1ccc(NC(=O)N(C)CC2CCOC2)c(Cl)c1 (stereo unspecified) | -0.8% |
| CN1C(=O)c2cccn2CC1C(=O)O (stereo unspecified) | 3.2% |
| Cc1ccccc1N1CCCN(Cc2ccccc2OCCO)CC1 | -16.0% |
| O=C1CCCCC(Cc2ccccc2)(C(=O)NCCc2ccccc2)N1 (stereo unspecified) | -1.8% |
| O=C1CCN(C(=O)c2ccccc2)CCCC(C(=O)NCCN2CCc3ccccc3C2)CCN1 (stereo unspecified) | -1.8% |
| Cc1ccccc1-n1nc(C)c([C@H]2C=C[C@@H](OC(=O)N[C@H](C)c3ccccc3)C2)c1C | -18.1%[70.6 µM] |
| CCc1nncn1C1CCN(S(=O)(=O)c2cc(F)ccc2C)CC1 | -10.0% |
| Cc1cccc(CNC(=O)CC2CCOCC2)c1 | 2.5% |
| CO[C@H]1[C@H](NC(=O)c2ccc(C)c(O)c2)c2ccccc2C12CCNCC2 | 3.3% |
| O=C1NCC(=O)N2CCN(C(=O)Nc3ccccc3Oc3ccccc3)CC12 (stereo unspecified) | 1.0% |
| COCc1nncn1C1CCN(S(=O)(=O)c2ccc(C(F)(F)F)cc2)CC1 | -0.9% |
| COc1ccccc1CC(=O)NC1CCN(c2cnn(C)c(=O)c2)CC1 | -2.6% |
| COc1cccc([S+](=O)([O-])N2CCC3(CC2)C(=NC2CCCC2)NC(=O)N3c2cc(F)cc(F)c2)c1 | 3.7% |
| Cc1nn(-c2ccc(F)cc2)c(C)c1[C@@H]1C=C[C@@H](NC(=O)CC(C)(C)CC(=O)O)C1 | -10.4%[70.6 µM] |
| COc1ccccc1C(=O)N1CCCC2(C1)NC(=O)c1ccccc1O2 (stereo unspecified) | 0.0% |
| CCCN(CC1CCOC1)S(=O)(=O)c1cc(F)cc(F)c1 (stereo unspecified) | 2.2% |
| O=C(c1cccc(F)c1)N1CC[C@H]2COC(=O)N2c2cc(F)ccc2C1 | 7.4%[70.6 µM] |
| CCn1ccc(C(=O)NC2CCCN(c3cc(-c4ccc(F)cc4)[nH]n3)C2)n1 (stereo unspecified) | -13.0% |
| Cc1cc(CN(C)C(=O)C2C3C(=O)N(Cc4ccc(C)c(C)c4)C[C@@]34C=C[C@@H]2O4)no1 (stereo partly specified) | -0.2% |
| COC(=O)c1ccc2nc(C[C@@H]3C[C@@H](C(C)C)[C@H](CNCc4ccccc4O)C=C3C)[nH]c2c1 | ? |
| CN(Cc1cccc(C(F)(F)F)c1)C(=O)c1cccc(C(F)(F)F)c1 | 11.2% |
| Cc1c(CN2C[C@@H]3C(=O)N(CCCN4CCCC4=O)C(=O)[C@@H]3C2)cnn1C | 1.3% |
| COCCNC(=O)C[C@@H]1C[C@H]2O[C@H](CNC3CCNCC3)[C@@H](O)[C@H]2O1 | -0.5%[70.6 µM] |
| CCCCCNC(=O)Cc1csc2nc(C)c(-c3cc(C)n(-c4ccccc4F)n3)c(=O)n12 | -6.7% |
| O=C(COc1ccccc1)N1C[C@@H](F)[C@@H](OCc2nc3ncccc3[nH]2)C1 | -1.0%[70.6 µM] |
| COCCN(C)C(=O)c1ccc2c(c1)NC(C)(CCCCc1ccccc1)CO2 (stereo unspecified) | -2.6%[70.6 µM] |
| COc1ccc(N2CC(c3noc(-c4ccc(OC)cc4OC)n3)CC2=O)cc1 (stereo unspecified) | -6.4% |
| O=C1NCCCCCCN(C(=O)c2cccs2)[C@H]2C[C@H](C(=O)N3CCc4ccccc4C3)C[C@@H]12 | 0.8% |
| CN1CCN(c2nc3c(c(=O)[nH]2)CCN(Cc2ccc(F)cc2Cl)CC3)CC1 | 0.7% |
| COc1ccc(-c2[nH]nc3ncc(C(=O)NCc4ccc(F)cc4)nc23)c(C)c1 | -18.7%[70.6 µM] |
| C1CCC(COCCc2noc(C3CCCN3)n2)C1 (stereo unspecified) | -0.5% |
| CC1CCC2(CC1)NC(=O)N(CC(=O)NC(C)C)C2=O (stereo unspecified) | 0.0% |
| CC(=O)Nc1ccc(CNC[C@H]2COCc3nc4cc(C)ccc4n32)cc1 | 5.0%[70.6 µM] |
| CN(C)C[C@@H]1CN(c2ccncn2)C[C@H]1NC(=O)COc1ccc(F)cc1 | 1.9% |
| CNC(=O)[C@@H]1CN(C(=O)c2ccc(F)cc2Cl)C[C@H]1COC | -1.6% |
| O=C(NC1CCCN(c2cc(-c3ccc(F)cc3)[nH]n2)C1)c1ccc(C(F)(F)F)cc1 (stereo unspecified) | -6.6% |
| O=C(Nc1ccccc1)[C@@H]1C[C@@H](c2cccc(C(F)(F)F)c2)N(CC2CCOCC2)C1 | ? |
| Cc1nn(C)c(C)c1C(C)NC(=O)CCc1ccc2c(c1)CN(C(=O)NC(C)C)CCO2 (stereo unspecified) | -1.9% |
| c1cc(CN2CCOC[C@H]2c2ncc(-c3ccncc3)[nH]2)ccn1 | 0.6%[70.6 µM] |
| Cc1ccccc1S(=O)(=O)N1CCCC2(C1)Nc1cccnc1NC2=NC1CCCC1 (stereo unspecified) | -14.0% |
| O=C(Cc1ccsc1)N1CCC2(CCCN(CC3CCC3)C2=O)C1 (stereo unspecified) | 13.0% |
| Cc1ncsc1CCNC(=O)c1cn(CCC2CCCCN2)nn1 (stereo unspecified) | -1.2% |
| O=[N+]([O-])c1cccc(-c2noc([C@@H]3Cc4nc[nH]c4CN3)n2)c1 | 1.6%&1.8%[70.6 µM] |
| Cc1ccccc1CN1C[C@@H]2[C@H](C1)N(Cc1ccccc1)C(=O)C(C)(C)[S+]2(=O)[O-] | -3.8%[70.6 µM] |
| O=C1NC[C@H]2CN(Cc3ccc(C(F)(F)F)cc3)CCN12 | -0.9%[70.6 µM] |
| Cc1cccc(C(=O)N2CCCN(c3nnc4ccccn34)CC2)c1 | 7.3% |

Of the compounds above, these contain a furan ring, fused or not.
| mol | NPR1 antag |
| --- | --- |
| CN(C)Cc1nnc(C2CC(NC(=O)c3coc4ccccc34)C2)n1C (stereo unspecified) | 3.0%&0.0% |
| Cc1cc(C)c(C(=O)N2CCOC(Cc3ccc(F)cc3)C2)o1 (stereo unspecified) | -4.7% |

Next records follow:
| mol | NPR1 antag |
| --- | --- |
| O=C1N[C@H](CC(=O)N2CCN(Cc3ccccc3)CC2)C(=O)Nc2ccccc21 | 1.6% |
| CC1(COc2ccc3[nH]ccc3c2)COc2ccc(C(=O)NCc3ccco3)cc2N1 (stereo unspecified) | -14.8%[70.6 µM] |
| CCn1c(C2CCCN(C(=O)Cc3c[nH]c4ccccc34)C2)nn(C)c1=O (stereo unspecified) | 2.8% |
| Cc1nc(NCc2ccc(N3CCCC3=O)cc2)cc(C2CC(O)C2)n1 (stereo unspecified) | 7.3% |
| COCC1CN(C(=O)c2sccc2C)CC12CCOCC2 (stereo unspecified) | 1.6% |
| Cc1cc(C(=O)N2CCC3(CC2)NCCc2c3[nH]c3ccccc23)nn1C | 10.0% |
| CN(C)CCN(C)[C@@H]1[C@H](O)[C@H](CO)O[C@@H]1CNC(=O)Nc1ccc(OC(F)(F)F)cc1 | 9.1% |
| O=C(COc1ccc(-c2nnc3n2CCCC3)cc1)NCc1ccc2c(c1)OCO2 | -5.8% |
| CCOc1cc(=O)n2c(c1C(=O)NCc1cccnc1)CCCCC2 | -13.8% |
| CCN1C(=O)C2CC3(CCN(Cc4cccn4C)CC3)CN2C1=O (stereo unspecified) | -4.7% |
| COCCc1noc(C2Cc3ccccc3N2C(=O)Cc2ccc(OC)c(OC)c2)n1 (stereo unspecified) | 6.1% |
| CC(C)c1noc(-c2cccn3c(CNC(=O)c4ccc(F)c(F)c4)nnc23)n1 | -0.6% |
| CC(C)NC(=O)N1CCCC(c2noc(COc3ccccc3)n2)C1 (stereo unspecified) | -1.1% |
| CCn1ncc(N2CCC(NC(=O)CN(C)C)CC2)cc1=O | -1.0% |
| COCCC(=O)N[C@H]1CC[C@]2(C)CC[C@@H]([C@H](C)C(=O)NCc3ccco3)[C@H](O)[C@H]2[C@@H]1C | 2.5%[70.6 µM] |
| COc1ccccc1C(=O)N1CCc2nc(C(C)C)nc(-c3ccc(O)cc3)c2C1 | -0.4% |
| Cc1ccc(CNC(=O)C2CCN(C(=O)c3cc4c(=O)[nH]c(C)cn4n3)CC2)cc1 | 1.8% |
| O=C(c1ccccc1)N1CCN(c2nc3ncccc3o2)CC1 | -3.0%[70.6 µM] |
| N#Cc1cccc(-c2cn3c(n2)N(C(=O)c2ccccc2F)CCC3)c1 | -4.2% |
| COc1ccccc1C(=O)N1CCC2(CC1)CC(=O)Nc1ccccc1O2 | -20.0% |
| CCCNC(=O)N(C1CCOCC1)C1CCN(C(=O)Cc2ccccc2Cl)CC1 | 4.6% |
| COC1C(=O)N(c2cccc(F)c2)C12CCN(C(=O)C1(c3ccccc3)CC1)CC2 (stereo unspecified) | -1.5% |
| COc1cccc(CC(=O)N2CCC(c3n[nH]c(=O)n3-c3ccccc3)CC2)c1 | 2.5% |
| NC(=O)[C@@H]1CN(Cc2ccco2)C[C@H]1COc1ccccc1 | -8.4% |
| CCC1(O)CCC12CCN(C(=O)c1ccco1)CC2 (stereo unspecified) | -14.9% |
| Cc1noc(C)c1-c1cc2c(cc(-c3ccccc3)n2C)c(N2CCOCC2)n1 | -0.3%[70.6 µM] |
| COc1ccc([C@@H](NC(=O)Cc2csc(C(C)=O)c2)C2CC(O)C2)cn1 (stereo partly specified) | -2.9% |
| Cc1ccc(CN2CCCCCCNC(=O)CC2c2ccccc2)s1 (stereo unspecified) | -15.4% |
| O=C(c1cccs1)N1CCCC(c2noc(COc3ccccc3F)n2)C1 (stereo unspecified) | 0.0% |
| COc1cccc(CN2CCOC[C@H](Oc3ccc(S(C)(=O)=O)cc3)C2)c1 | -2.8%[70.6 µM] |
| COc1ccc(-c2nccc3c(=O)cc(-c4cccnc4)oc23)cc1OC | -0.1%[70.6 µM] |
| CCOCCCNC(=O)CCc1cc2cc(C)ccc2[nH]c1=O | -0.3% |
| COc1ccc(-n2cc(CN3CCN(C)C(C)C3)c(-c3cccc(F)c3)n2)cc1 (stereo unspecified) | -4.4% |

Assay outcomes from PubChem BioAssay.

Only part of the results is shown (hit frequency here may not be typical).
